From PubChem
gsp agonist = activates gsp, the McCune-Albright syndrome mutation; gsp mutant cells, cAMP HTRF, 30 min; control for the full effect not named in the record; Potency, µM (titrated, usually from 76.9 µM), inactives show at the highest dose activation (cAMP increase), most hits filed as activators; 340,000 tested, 0.13% active; active = well fitted activation curve with a large enough effect; inconclusive = small, poorly fitted or top-dose-only effect, or another doubt; inactive = no such curve, though single readings can be large or run the other way; cell line not stated here;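 also: phosphodiesterase inhibitor Ro 20-1724 added with compounds to block cAMP breakdown; potency is read from the fitted curve at half-maximal effect; nearly all actives have a fitted effect of over 60% in size; about a fifth of the inactives were tested at one dose only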
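Cells stably selected in G418 were plated at 2000/well, grown 16-24 hr, then given compounds in DMSO with the PDE inhibitor […] (300 uM solution added) for 30 min at 37C; cAMP was read by HTRF.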
Sfp PPTase inh = inhibitors of Bacillus subtilis Sfp phosphopantetheinyl transferase; Potency, µM, for inactives: max response, negative = inhibition, usual class: inhibitors; Biochemical Sfp PPTase activity, qHTS; Q9F4F7; 310,000 tested, 3.5% active; active = well fitted inhibition curve with a large enough effect; inconclusive = small, poorly fitted or top-dose-only effect, or another doubt; inactive = no such curve, though single readings can be large or run the other way;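 also: the enzyme is Sfp with the accession as filed and its product quenches rhodamine fluorescence; potency is read from the fitted curve at half-maximal effect; 0% = enzyme reaction without inhibitor and -100% = no enzyme wells; top concentration of the series not given in the record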
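Reaction rates are the 30-min fluorescence difference (ex 525, em 598 nm) in wells containing 15 nM Sfp, 5 uM rhodamine-CoA and 12.5 uM BHQ-2-YbbR at pH 7.6 with 10 mM MgCl2.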
gsp antagonist = gsp mutant antagonism; gsp-mutant cells, cAMP HTRF, 30 min; control for the full effect not named in the record; AID 624288; 340,000 tested, 0.4% active; Potency, µM (highest dose often 76.9 µM), without a hit: at the top dose activity change, negative = inhibition, actives largely listed as inhibitors; active = falling curve of any shape with a large fitted effect; inconclusive = falling curve, mostly with a smaller effect; inactive = flat or rising curve; cell line not stated here;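 also: intracellular cAMP measured with PDE inhibitor Ro 20-1724 present during compound exposure; potency is read from the fitted curve at half-maximal effect; % is scaled to controls: 0 for no effect and ±100 for the full control effect; nearly all actives have a fitted effect of over 65% in size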
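HTRF cAMP measurement after 30 min RT detection following 30 min, 37C compound treatment alongside […] (added as 300 uM solution) in G418-selected cells seeded at 2000/well and grown 16–24 h.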
Menin-MLL FL inh = displaces fluorescein MLL peptide from human menin | FP activity change, % at 61.4 µM | Fluorescence polarization, fluorescein-MLL peptide displacement from menin | 290,000 tested, under 10 active | AID 1766; inconclusive = falling polarisation curve, or a change in total fluorescence; inactive = total fluorescence flat and polarisation flat or rising; no compound was filed as active; the % refers to the polarisation; negative = inhibition;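 also: % of control where 0% means no effect; inhibitors lower the polarisation; unlabelled MLL peptide was the positive control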
ClpP mod = qHTS Assay for Activators of ClpP; purified B. subtilis ClpP, FRET peptide cleavage, 20 min; 340,000 tested, 1.9% active; ATP-dependent Clp protease proteolytic subunit (Bacillus subtilis (strain 168)), P80244; Potency, µM (series often up to 57.5 µM), inactives show at the top dose activity change, negative = active; active = well fitted falling curve with a large enough effect; inconclusive = small, poorly fitted or top-dose-only effect; inactive = no such curve, though single readings can be large or run the other way; also: potency is read from the fitted curve at half-maximal effect; the source files actives as falling curves though it sought activators and does not explain the sign; nearly all actives have a fitted effect of over 65% in size; many hits overshoot -100%
Target sequence (P80244 whole entry, looked up): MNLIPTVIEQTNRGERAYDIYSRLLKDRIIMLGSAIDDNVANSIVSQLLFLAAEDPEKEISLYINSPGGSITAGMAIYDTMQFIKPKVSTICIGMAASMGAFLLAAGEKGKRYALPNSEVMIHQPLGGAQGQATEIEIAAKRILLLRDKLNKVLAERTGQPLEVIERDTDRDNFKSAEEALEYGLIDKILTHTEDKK
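Buffer: 100 mM Tris/HCl pH8, 100 mM KCl, 0.05% low protease BSA, 2.5% glycerol, 0.01% Tween-20. ClpP 10 microg/mL final; 20 min RT; delta FRET normalized to ADEP and DMSO controls.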
CtBP-E1A blk = CtBP/E1A binding inhibition; activity change, % (concentration not given with the values); 340,000 tested, 0.49% active; AlphaScreen GST-E1A/His-CtBP binding, 1536-well; stronger effect = lower value; control for the full effect not named in the record; in the data active means activity change below about -65%; inconclusive means about -30% to -65%; inactive means above about -30%; also: % is scaled to controls: 0 for no effect and ±100 for the full control effect
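AlphaScreen with 125 nM GST-E1A and 125 nM His-CtBP (5X stocks) in Tris pH 8.0, 300 mM NaCl, BSA, Tween 20, TCEP. Compounds preincubated 2 h at 37 deg C, then glutathione donor/nickel acceptor beads added for 1 h at 37 deg C in dark.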
TRPV1 PAM = human TRPV1 potentiation. Q8NER1. TRPV1-expressing cells, Fluo-8 calcium influx, capsaicin EC20 potentiation; host cell line not named in the record; control for the full effect not named in the record. potentiation, % at 8.33 µM. 320,000 tested, 0.02% active. AID 540277; active means potentiation above 80%; inconclusive means 30% to 80%; inactive means below 30%; also: 0% is about no effect
Target sequence (Q8NER1 whole entry, looked up): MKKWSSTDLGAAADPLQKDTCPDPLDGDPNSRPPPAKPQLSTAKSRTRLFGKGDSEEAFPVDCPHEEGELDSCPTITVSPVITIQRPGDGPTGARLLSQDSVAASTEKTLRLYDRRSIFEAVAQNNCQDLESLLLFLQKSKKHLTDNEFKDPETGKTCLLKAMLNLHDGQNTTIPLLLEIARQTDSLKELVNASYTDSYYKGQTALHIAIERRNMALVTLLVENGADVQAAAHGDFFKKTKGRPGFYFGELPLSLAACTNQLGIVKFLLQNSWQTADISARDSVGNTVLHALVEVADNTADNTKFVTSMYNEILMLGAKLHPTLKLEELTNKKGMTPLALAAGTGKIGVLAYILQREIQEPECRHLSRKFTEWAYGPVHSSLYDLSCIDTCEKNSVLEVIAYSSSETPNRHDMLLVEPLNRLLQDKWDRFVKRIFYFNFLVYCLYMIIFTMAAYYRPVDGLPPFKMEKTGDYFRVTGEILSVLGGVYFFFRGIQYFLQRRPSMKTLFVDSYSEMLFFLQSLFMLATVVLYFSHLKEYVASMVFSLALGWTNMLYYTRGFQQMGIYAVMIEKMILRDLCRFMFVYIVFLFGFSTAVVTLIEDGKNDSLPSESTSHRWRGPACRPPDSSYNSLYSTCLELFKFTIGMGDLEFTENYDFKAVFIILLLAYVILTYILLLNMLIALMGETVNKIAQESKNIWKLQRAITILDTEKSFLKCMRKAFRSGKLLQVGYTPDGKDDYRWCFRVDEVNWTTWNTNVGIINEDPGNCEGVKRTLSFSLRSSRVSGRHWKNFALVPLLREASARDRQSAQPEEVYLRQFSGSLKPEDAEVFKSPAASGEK
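TRPV1-expressing cells were cultured overnight at 35.5C and loaded with Fluo-8 calcium dye for 40 to 90 min at room temperature. After a 10 s baseline, compound was added and calcium influx was read kinetically for 3 min (ex 480/em 520 nm).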
The depositor's hits bear a star; ? = inconclusive; . = no result given; [ ] = dose if it differs, or a comment.

mol,gsp agonist,Sfp PPTase inh,TRPV1 PAM,ClpP mod,Menin-MLL FL inh,CtBP-E1A blk,gsp antagonist
C[C@@H]1CN([C@@H](C)CO)C(=O)CCCn2nncc2CO[C@@H]1CN(C)S(=O)(=O)c1ccc(Oc2ccccc2)nc1,-81%[inhibitor],.,.,-1.8%,.,-8,.
C/C(=N\NC(=O)c1c[nH]c2ccccc12)c1ccco1,-49%[inhibitor],-7%,13,0.1%,-0.5,?,-4%
COc1ccc(-c2csc3ncnc(N4CCN(C(=O)c5ccco5)CC4)c23)cc1,21%,.,-37,0.0%,.,14,?
C=CCN(CC=C)S(=O)(=O)c1ncn[nH]1,-19%,-24%,-2,0.6%,-0.2,8,-20%
COc1cccc(/C=N/NC(=O)c2c(C)nc3ccc(Cl)cn23)c1OC,-24%,11%,18,4.1%,1.3,.,0%
CC1=NN(C(=O)c2ccc(C)cc2)C(O)(C(F)(F)OC(F)(F)F)C1 (centres undefined),8%,3%,.,0.1%,-1.3,1,-10%
COC(=O)[C@@H](NCc1ccc(B(O)O)cc1)C(C)C,.,.,.,-0.2%,.,2,1%
N#Cc1c(NC(=O)CSc2nc(N)cc(=O)[nH]2)sc2c1CCCC2,2%[15.4 µM],-24%,7,.,10,11,.
O=C(c1ccco1)n1nc(-c2cccnc2)nc1NCc1ccco1,2%[15.4 µM],19%,1,.,0.1,-19,.
COc1cccc(/C=N/n2c(COc3ccccc3)n[nH]c2=S)c1O,-24%,?,4,0.9%,11,2,?
NC(=O)CSc1nnc(-c2cccs2)n1-c1ccccc1,-7%,23%,3,-2.7%,-2.8,-15,1%
COc1ccc(NC(=O)C2C3C=CC4(O3)C2C(=O)N(CCCN2CCCCC2)C4C(=O)NC2CCCC(C)C2C)cc1 (centres undefined),-2%,1%,-38,.,5.7,-2,9%
NC(=O)C1(N2CCCCC2)CCN(C(=S)Nc2ccc(F)c(Cl)c2)CC1,-10%,-7%,-5,-0.6%,-0.4,3,13%
Cc1cc(NC(=O)COC(=O)C2CCN(S(=O)(=O)c3ccc(Cl)cc3)CC2)no1,-11%,-2%,.,0.0%,0.0,-2,4%
Nc1nc(Cl)cc(Oc2ccccc2F)n1,24%[15.4 µM],-1%,6,.,0.9,11,1%
O=C(c1ccco1)N1CCN(Cc2cccc([N+](=O)[O-])c2)CC1,4%,-11%,6,-0.2%,2.7,-5,3%
CC(C)(C)c1ccc(C(=O)Nc2ccccc2C(=O)NCCN2CCOCC2)cc1,-16%,13%,5,0.2%,9.0,-2,-10%
CN(CC(=O)NCc1ccncc1)S(=O)(=O)c1ccc2ccccc2c1,18%,17%,-9,.,4.2,1,-4%
Nc1ccc2c(C(F)(F)F)cc(=O)oc2c1,?,19%,-8,?,?,14,21%
COc1ccc(CCNC(=O)C2CCC(=O)N(CCc3ccc(OC)cc3)C2)cc1 (centres undefined),2%,18%,2,-1.1%,-2.9,1,-15%
O=C(COC(=O)C1CCN(c2ccc(C(F)(F)F)cn2)CC1)c1ccc(F)cc1,8%,.,?,-4.0%,.,0,-7%
CC1CCCCC1NC(=O)C1CCN(S(=O)(=O)N2CCOCC2)CC1 (centres undefined),-24%,19%,4,-0.6%,4.0,3,-4%
Cc1nn(-c2ccccc2)c(C)c1/C=N/n1c(-c2ccccc2Br)n[nH]c1=S,-26%[15.4 µM],?,-5,0.2%,0.9,11,-23%
CCOC(=O)N1CCN(Cc2nc3c(c(=O)n(C)c(=O)n3C)n2Cc2cc(C)ccc2C)CC1,.,3%,17,.,0.4,.,.
C=CCNC(=O)C1CCN(S(=O)(=O)c2ccccc2)CC1,21%,22%,-13,1.8%,13,0,-1%
CC(=C/c1ccccc1)/C=N/n1c(-c2ccco2)n[nH]c1=S,-8%,?,3,-1.2%,-15,-9,-31%
Cc1cc(C)cc(NC(=O)C(NCC2CCCO2)c2ccccc2)c1 (centres undefined),?,13%,-12,1.4%,5.9,-5,1%
FC(F)(F)c1cccc(Cc2noc(CN3C[C@@H]4CCC[C@H]3C4)n2)c1,?,19%,-10,.,3.0,3,6%
CC(C)(C)OC(=O)CN1C(=O)NC(Cc2c[nH]c3ccccc23)C1=O (centres undefined),-5%,5%,26,-1.2%,-3.9,23,-16%
c1ccc(CN(CCN2CCOCC2)Cc2ccccc2)cc1,3%,.,.,.,.,-1,1%
COc1ccc(CC(=O)NCCC(C)C)cc1S(=O)(=O)N1CCOCC1,1%[15.4 µM],18%,-4,0.0%,-2.8,-1,13%
CCN(CC)CC(=O)N(CC(=O)Nc1c(C)cc(C)cc1C)C1CCCCC1,-6%,11%,1,-1.1%,-1.4,-3,7%
CC(C)(C)OC(=O)NNC(=O)Nc1ccccc1C(F)(F)F,21%[15.4 µM],1%,1,.,-1.2,17,5%
CCN(Cc1ccccc1)Cc1cc(OC)cc(OC)c1,-2%,4%,14,1.2%,0.7,11,-19%
Cc1cccc(C)c1NC(=O)CSCc1cccc(CSCC(=O)Nc2c(C)cccc2C)n1,5%,14%,-1,0.5%,4.4,2,0%
CCOc1ccc(-n2cc(-c3ccccc3)c3c(=O)[nH]cnc32)cc1,19%,-9%,6,.,3.2,12,?
CCN(CC(=O)Nc1ccccc1OC)C(=O)c1ccc(N(C)S(=O)(=O)c2ccc(C)cc2)cc1,-1%[15.4 µM],.,24,-5.0%,.,-5,-17%
CCOC(=O)c1c(N)sc2c1CCS(=O)(=O)C2,-81%[inhibitor],56µM*,-7,-0.7%,2.8,0,-2%
COc1ccc(-n2cnc3cc(N)ccc32)cc1,4%,18%,-2,1.7%,-0.8,8,-5%
O=C(c1ccoc1)N1CCC2(CCCN(Cc3ccc(F)c(F)c3)C2)C1 (centres undefined),3%,7%,9,0.5%,.,10,-7%
COc1ccc(CNc2nc3nc(C)cc(C)n3n2)cc1OC,16%,5%,-5,-14%,3.6,-11,18%
CC(=O)Nc1ccc(NC(=O)C2CC(=O)N=C(N)S2)cc1 (centres undefined),-15%,1%,3,-0.7%,1.3,-1,8%
O=C(CSc1nnc(Cc2cccs2)n1C1CCCCC1)N1CCN(C(=O)c2ccco2)CC1,-61%[inhibitor],7%,5,-1.8%,0.0,-1,-19%
CC12CCC(C(=O)N3CCCc4ccccc43)(OC1=O)C2(C)C (centres undefined),-45%[inhibitor],-20%,-29,-5.9%,0.8,-10,14%
COc1cc2c(cc1OC)C(c1cccc(OC)c1OC)CC(=O)N2 (centres undefined),-30%,9%,?,0.7%,-1.2,0,2%
c1ccc(OCc2nnc(-c3ccccc3)o2)cc1,-14%[15.4 µM],13%,-5,.,-25,2,14%
C=CCOC(=O)C1=C(C)NC(=O)NC1c1ccc(OC(=O)c2ccco2)c(OC)c1 (centres undefined),-22%,5%,1,0.9%,2.0,0,2%
CN(CC(=O)Nc1cccc(S(=O)(=O)N2CCCC2)c1)CC(=O)Nc1ccc(Cl)c(C(F)(F)F)c1,-17%[15.4 µM],.,-2,.,.,-1,?
CCOc1ccc(NC(=O)N(CCC(C)C)C(C)c2ccco2)cc1 (centres undefined),-25%,-12%,-8,28µM*,5.3,-5,-6%
COc1ccccc1C(=O)NC(=O)COC(=O)c1ccc(Cl)nc1,-30%,.,5,-17%,.,5,7%
N#Cc1cnn2c(-c3ccccc3)ccnc12,19%,3%,0,25µM*,-0.3,0,31%
COc1cccc(NC(=O)CSC2=C(C#N)C(c3ccco3)C3=C(CCCC3=O)N2)c1 (centres undefined),1%,7.9µM*,-5,-6.9%,6.4,-5,-8%
Cc1nc(CC(=O)N2CCN(c3cccc(C)c3C)CC2)cs1,-35%[inhibitor],-8%,-25,-1.6%,0.4,7,1%
Cc1ccc(OCC(=O)N[C@@H](C)c2nnc3ccccn23)cc1C,-2%,2%,7,0.5%,2.1,.,3%
Cc1csc2nc(O)c(C(=O)NC3CCCCC3C)c(=O)n12 (centres undefined),19%[15.4 µM],.,-5,.,.,1,-15%
COc1ccc2nc(C)cc(N3CC(C)OC(C)C3)c2c1 (centres undefined),0%,-5%,-13,-1.3%,3.1,2,9%
CC1CC(C)(C)CC2(C1)NC(=O)N(CC(=O)Nc1ccc3[nH]c(=O)[nH]c3c1)C2=O (centres undefined),7%,.,-5,-2.2%,.,.,4%
CCn1nc(C(=O)OCC(=O)c2cc(C)n(Cc3cccs3)c2C)c2ccccc2c1=O,?,-3%,13,-1.1%,5.9,3,-24%
Cc1cccc(NC(=O)COC(=O)c2nn(-c3ccccc3C(F)(F)F)cc2O)c1C,-34%[inhibitor],.,.,-1.6%,.,5,.
Cc1cc(C)n(CCNC(=O)CC2C(=O)NCCN2Cc2ccc(C)o2)n1 (centres undefined),4%[15.4 µM],-10%,3,.,-8.3,6,12%

Additional compounds:
mol,gsp agonist,Sfp PPTase inh,TRPV1 PAM,ClpP mod,Menin-MLL FL inh,CtBP-E1A blk,gsp antagonist
O=S(=O)(O)c1cccc2c(N=Nc3ccc(O)c4ncccc34)cccc12,16%,-7%,-6,-1.7%,4.0,-92*,6%
Cc1ccc(C(=O)N2CCN(Cc3ccc4c(c3)OCO4)CC2)cc1[N+](=O)[O-],-7%,18%,-6,.,2.5,0,-5%
CC(C)Sc1nnc(SCC(=O)NCCCN2CCCC2=O)s1,1%,.,-33,-0.2%,.,6,2%
COc1ccc2cc(S(=O)(=O)NCc3cccnc3)ccc2c1,15%[15.4 µM],14%,6,.,-0.3,-10,-7%
CNC(=S)N1CCC(NC(=O)c2ccco2)CC1,.,13%,-14,.,0.2,.,.
COc1ccccc1NC(=O)C1=C(C)Nc2nnnn2C1c1ccccn1 (centres undefined),-1%,16%,-5,-2.1%,-1.8,-2,-2%
C=CCNc1sc(C(=O)c2ccc(C)cc2)c(N)c1C#N,12%,-4%,-6,-1.4%,17,-11,-4%
